YopH PTP inh = YopH tyrosine phosphatase inhibitors, primary screen, biochemical, fluorescence Ex485/Em525; inhibition, %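 (about 10 µM by stock and volumes)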; actives 0.16% (n = 140,000); AID 898, 2007;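 active = inhibition of 50% or more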;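 also: controls were vehicle for no effect and minimum signal wells for full effect; inactives centre near -20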
Arbovirus inh = antivirals against arbovirus infection, primary screen, cell-based, full library, 10K replicate subset | arbovirus infection cell-based antiviral screen | inhibition, % at 10 µM | actives 0.37% (n = 200,000) | AID 1251, 2008;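 active = inhibition from about 30%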;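 also: bluetongue infection of BSR cells; cell survival read as ATP light after 72 h; 0% = infected wells without compound and 100% = uninfected wells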
Mtb H37Rv = M. tuberculosis H37Rv growth inhibitors, H37Rv strain (AID 1626); M. tuberculosis H37Rv growth inhibition; higher % means a stronger effect; one-dose inhibition, % at 10 µM; IC50 in µM for titrated hits; actives 0.95% (n = 220,000);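 active = confirmed in a dose series; inconclusive = inhibition above 80% but not taken into the dose series; inactive = below 80% or under 30% at every dose of the series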;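 also: bacteria incubated seven days before Alamar blue readout; 0% = bacteria only wells and 100% = bacteria with antibiotic wells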
Mtb betalactam = beta-lactam sensitization of Mtb H37Rv, H37Rv | inhibition, % at 25 µM | actives 0.27% (n = 330,000) | M. tuberculosis H37Rv growth with meropenem, percent inhibition; hits of this screen are not shown here;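 active = about 74% or more and at least 40 points above the plate without the antibiotic, then above 30% in a dose series; inconclusive = first-round hits that could not be retested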;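 also: growth measured after seven days incubation then overnight dye step; 0% = bacteria only wells and 100% = bacteria with antibiotic; twin plates without the antibiotic show which effects depend on it; some results filed as inactive read as strong as hits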
RecA splice inh = Mtb RecA intein splicing inhibitors, primary screen, biochemical, fluorescence, HTS | Protein RecA (Mycobacterium tuberculosis (strain ATCC 25618 / H37Rv)), P9WHJ3 | cell-free RecA intein splicing | actives 0.75% (n = 290,000) | AID 2221, 2009 | inhibition, %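 (about 9 µM by stock and volumes)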; in the data active = inhibition above about 30%; inconclusive = no clear call, values can overlap the other calls;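 also: 0% = vehicle wells and 100% = reference inhibitor control wells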
Target sequence (P9WHJ3 whole entry, looked up, canonical isoform): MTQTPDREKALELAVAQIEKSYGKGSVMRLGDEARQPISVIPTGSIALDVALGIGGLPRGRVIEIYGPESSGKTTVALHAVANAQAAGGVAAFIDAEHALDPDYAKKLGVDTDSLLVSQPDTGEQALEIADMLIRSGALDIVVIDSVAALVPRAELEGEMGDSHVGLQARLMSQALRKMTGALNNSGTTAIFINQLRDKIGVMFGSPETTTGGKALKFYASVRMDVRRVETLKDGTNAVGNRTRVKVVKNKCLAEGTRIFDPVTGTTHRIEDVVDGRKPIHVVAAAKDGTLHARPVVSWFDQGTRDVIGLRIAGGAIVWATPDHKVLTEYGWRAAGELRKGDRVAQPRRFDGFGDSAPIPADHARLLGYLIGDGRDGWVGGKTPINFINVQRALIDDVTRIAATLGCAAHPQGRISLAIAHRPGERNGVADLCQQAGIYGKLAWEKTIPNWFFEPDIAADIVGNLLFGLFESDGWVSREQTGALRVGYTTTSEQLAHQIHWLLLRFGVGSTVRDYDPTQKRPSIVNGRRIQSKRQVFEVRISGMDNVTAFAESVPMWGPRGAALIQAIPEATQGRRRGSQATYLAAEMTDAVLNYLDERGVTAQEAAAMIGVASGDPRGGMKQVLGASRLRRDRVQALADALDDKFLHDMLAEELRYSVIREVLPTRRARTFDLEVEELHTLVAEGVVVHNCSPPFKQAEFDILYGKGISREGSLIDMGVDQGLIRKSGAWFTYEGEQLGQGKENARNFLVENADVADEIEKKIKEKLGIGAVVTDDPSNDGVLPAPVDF
Arbovirus inh repeat = also measured in Arbovirus inh; calls as there; inhibition, %; measured here: 10K subset replicate screen; many hits read low in the repeat;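 first of two repeat runs on a subset; 0% = infected and 100% = uninfected wells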
An asterisk follows results filed as active; ? = inconclusive; . = no result given. Some of the compounds tested (hit frequency here may not be typical).

SMILES	YopH PTP inh	Arbovirus inh	Mtb H37Rv	Mtb betalactam	RecA splice inh	others
Cc1nc2ccccc2n1CCC(=O)Nc1cccc(F)c1	-12	3	1%	-7	4.9
CCOC(=O)Cc1nnc(NC(=O)COc2ccc(OC)cc2)s1	-10	2	-3%	-5	-0.7
O=C(CSc1nncs1)Nc1ccc(S(=O)(=O)N2CCCC2)cc1	.	11	2%	0	0.9
O=C(CSc1nnc(-c2ccco2)n1Cc1ccco1)Nc1ccccc1	-21	1	-3%	1	2.8
CCOc1ccc(S(=O)(=O)Nc2cccc(C)c2)c2cccnc12	.	-2	-5%	-5	0.0
O=C(NCc1ccco1)c1cc2c(s1)CCCCC2	-19	5	5%	45	4.7
CCCNc1cc(=S)nc(N)[nH]1	.	.	.	1	-2.1
COC(=O)c1c(NC(=O)Cn2cc([N+](=O)[O-])cn2)sc2c1CCC2	17	-11	1%	3	1.2
O=C(COC(=O)c1ccccn1)Nc1nc(-c2cccc([N+](=O)[O-])c2)cs1	.	.	10%	74	0.3
O=C1C2C3c4ccccc4C(c4ccccc43)C2C(=O)N1/N=C/c1cccc(O)c1 (stereo not given)	3	-3	-7%	-15	2.0
CCOC(=O)c1c(NC(=O)/C=C/C(=O)O)sc(C)c1-c1ccc(F)cc1	.	2	3%	-3	60*
O=C(O)c1cnn2c(-c3ccccc3)ccnc12	.	.	.	-4	0.4
N#CC1CCN(c2ncccc2[N+](=O)[O-])CC1	.	.	-9%	-7	-1.2
COc1ccc(OC)c(/C=N/Nc2nc(C)cc(=O)[nH]2)c1	.	.	.	1	-3.6
O=S(=O)(N/N=C1/CCCc2ccccc21)c1ccc(Br)cc1	-23	17	11%	-6	7.5
CCOC(=O)C(=Nc1ccc(Cl)cc1)NO	-25	-6	-2%	3	-0.3
COc1cccc(NC(=O)N2CCCC2C(=O)NCc2ccc(Cl)cc2)c1 (stereo not given)	.	.	.	-24	2.0
CC(C)Oc1ccc(N2C(=O)c3ccccc3C2=O)cc1	-32	6	51%	33	-1.3
Cc1ccc(C)c(SCc2noc(C(=O)NC(C)C)c2C(=O)O)c1	-74	4	-3%	-1	-0.1
N#Cc1c(-c2ccccc2)[nH]c(=S)[nH]c1=O	-16	7	-3%	3	2.0
C=CCOc1ccc(/C=C2\SC(=S)N(NS(=O)(=O)c3ccc(C)cc3)C2=O)cc1	.	.	.	3	9.2
CCCC(c1nnnn1CS(=O)(=O)c1ccc(C)cc1)N1CCN(c2ccc(F)cc2)CC1 (stereo not given)	-3	-1	15%	-1	0.0
Cc1nn(-c2ccccc2)c(C)c1/C=C/C(=O)OCC(=O)N(C)C1CCS(=O)(=O)C1 (stereo not given)	.	8	0%	-1	-1.0
O=C(NNC(=S)Nc1ccccc1Cl)c1ccncc1	.	.	77%	97	-0.6
COc1ccc(-c2nc(CSCC(=O)N3CCC(C(N)=O)CC3)c(C)o2)cc1OC	-24	-3	0%	-2	0.7	Arbovirus inh repeat=5
O=C(Cc1cccs1)Nc1ccc([N+](=O)[O-])cc1	.	.	.	0	2.1
COc1ccccc1C(=O)NC(C(=O)NCCc1nc2ccccc2[nH]1)=C(C)C	.	.	.	3	-0.2
Cc1cccc(NC(=O)c2ccc3c(=O)n(CC4CCCO4)c(=S)[nH]c3c2)c1 (stereo not given)	.	.	.	0	-2.8
COc1ccc(OCc2cc(C(=O)N3CCCC(CO)C3)no2)c2ccccc12 (stereo not given)	.	.	.	-3	16
Cc1ncc(CCl)c2c1OC(C)(C)OC2	-23	3	6%	.	-0.1
Cc1cccc(CS(=O)(=O)c2ncc(Cl)c(C(=O)NCc3ccc4c(c3)OCO4)n2)c1	.	.	.	4	51*
Cc1ccc2nc(NC(=O)CS(=O)(=O)Cc3ccccc3)sc2c1	.	.	8%	-2	4.3
CCOC(=O)c1cc([N+](=O)[O-])sc1N	.	-1	0%	-5	5.9
CC(C)NC(=S)N/N=C/c1ccc(N2CCOCC2)cc1	2	-2	?	0	-3.2
O=C(Nc1ccccn1)N1CCOCC1	-7	2	-2%	-5	-5.4
CCCNC(=O)NCCC12CC3CC(CC(C3)C1)C2	.	-5	4%	2	0.7
N#Cc1ccc(CSc2nnc(NC(=O)CN3C(=O)C4CC=CCC4C3=O)s2)cc1 (stereo not given)	0	15	-11%	-3	-1.0
CN(/N=C/c1ccncc1)C1=NCCN1	.	.	.	3	3.4
O=C1CC(c2ccccc2)CN1C(=O)c1cncc(Br)c1 (stereo not given)	.	2	-1%	9	0.5
O=C1CN(c2ccccc2Cl)C(=O)CN1c1ccccc1Cl	-2	-1	0%	-21	0.7
CCCSc1oc(-c2ccco2)nc1S(=O)(=O)c1ccccc1	35	9	5%	8	4.6
CC(C)c1nnc(NC(=O)CCS(=O)(=O)c2ccccc2)s1	.	.	.	27	1.2
COC(=O)c1nnn(CC(=O)NC(=O)Nc2c(C)cccc2C)c1C(=O)OC	-33	0	-6%	-4	0.1
O=C(NCc1ccccc1)c1ccc(CS(=O)(=O)Cc2ccc(F)cc2)o1	.	.	.	-1	-5.6
CC(=O)c1cnc(Nc2nc(C)c3ccccc3n2)nc1C	-18	2	.	12	0.6
COc1ccc(-c2cc(OC(=O)c3ccc(F)cc3)c3c(C)oc(C)c3c(=O)c2)cc1	-47	2	-2%	-16	.
O=S(=O)(NC1CC1)c1ccc(F)c(F)c1	.	.	.	-2	-0.1
O=C1c2c(O)cc(O)cc2O[C@@]12c1c(cc(O)c3c1O[C@H](c1ccc(O)cc1)[C@@H](O)C3)O[C@@H]2c1ccc(O)cc1	-22	1	-7%	0	-2.8
CCOc1ccc(S(=O)(=O)NCCC(=O)Nc2nnc(C)s2)cc1	.	.	.	-1	3.9
CCOC(=O)CC1C(=O)NCCN1Cc1cccc(OC)c1 (stereo not given)	-22	5	3%	-2	-1.1	Arbovirus inh repeat=2
COc1cccc(C(=O)Nc2ccc3[nH]c(=O)[nH]c3c2)c1OC	.	.	.	0	5.4
COc1ccc(OC)c(C(=O)CSc2nnc(-c3cccs3)o2)c1	-17	5	-3%	0	-0.9
Cc1ccc(S(=O)(=O)N2CCOCC2)cc1C(=O)NCc1ccco1	-6	2	-9%	-2	-1.5
COc1ccc(C(=O)Nc2cc(C(=O)NCCc3ccccc3)ccc2Cl)cc1	-23	4	-1%	17	2.5
CN(C(=O)c1ccc(S(=O)(=O)N2CCCC2)cc1)C1CCS(=O)(=O)C1 (stereo not given)	.	.	.	-4	1.5
CCOC(=O)c1c(NC(=O)CSc2ncccn2)sc2c1CC(C)(C)NC2(C)C	.	.	.	3	1.5
O=C(Nc1ccc2c(c1)CCC2)c1cc(=O)[nH]c2ccccc12	.	.	-1%	2	1.6
CCCOc1ccc(-c2c(C(=O)N/N=C/c3ccc(OCC)cc3)nnn2-c2nonc2N)cc1	-30	-13	1%	-4	5.2
COc1ccc(NC(C)=O)cc1NC(=O)CN1CCN(C2c3ccccc3-c3ccccc32)CC1	-29	-43	?	73	-1.4
O=C(O)COc1ccccc1/C=N/NC(=O)c1cc2ccccc2cc1O	.	.	-5%	-1	-61

Six entries from above, sorted by length of the SMILES, smallest number first:
SMILES	YopH PTP inh	Arbovirus inh	Mtb H37Rv	Mtb betalactam	RecA splice inh	others
COc1ccc(OC)c(C(=O)CSc2nnc(-c3cccs3)o2)c1	-17	5	-3%	0	-0.9
CCOc1ccc(S(=O)(=O)NCCC(=O)Nc2nnc(C)s2)cc1	.	.	.	-1	3.9
COc1cccc(C(=O)Nc2ccc3[nH]c(=O)[nH]c3c2)c1OC	.	.	.	0	5.4
COc1ccc(C(=O)Nc2cc(C(=O)NCCc3ccccc3)ccc2Cl)cc1	-23	4	-1%	17	2.5
CCOC(=O)c1c(NC(=O)CSc2ncccn2)sc2c1CC(C)(C)NC2(C)C	.	.	.	3	1.5
CCCOc1ccc(-c2c(C(=O)N/N=C/c3ccc(OCC)cc3)nnn2-c2nonc2N)cc1	-30	-13	1%	-4	5.2

(list continues)
SMILES	YopH PTP inh	Arbovirus inh	Mtb H37Rv	Mtb betalactam	RecA splice inh	others
COc1ccccc1N1CCN(S(=O)(=O)c2c(C(=O)N3CCOCC3)c(C)n(C)c2C)CC1	.	.	.	-6	1.6
CN(CC(=O)Nc1cccc(F)c1)CC(=O)Nc1cccc([N+](=O)[O-])c1	.	6	-6%	15	2.2
Cc1ccc2nc(SCc3cn4cccnc4n3)[nH]c2c1	-9	10	-6%	-5	-1.6
Cn1c(=O)[nH]c(=O)c2c1nc(N1CCN(c3ccccc3)CC1)n2CCSc1ncccn1	0	-8	-1%	-2	-1.4	Arbovirus inh repeat=-1
Cc1cccc(CN2C(=O)c3ccccc3Sc3ccc(C(=O)NCCCN4CCOCC4)cc32)c1	.	.	.	2	-4.2
CCNC(=S)NNC(=O)c1nn(C)c(C)c1Cl	.	3	-1%	-4	-0.8
Cc1ccc(SCCC(=O)Nc2ccccc2Br)cc1	.	3	10%	-3	1.3
O=C(Nc1ccc(CN2CCOCC2)cc1)c1ccc(F)cc1	.	.	.	-4	-1.9
CC(=O)Nc1ccc(/C=N/NC(=O)c2cc3cc(C)ccc3nc2C)cc1	-19	3	-7%	-3	-1.3
O=C(c1cccs1)N1CCC(N2CCN(c3ccccc3)CC2)CC1	-13	-1	-3%	-10	-4.2
COc1ccccc1OCc1nc2ccccc2[nH]1	-10	1	0%	-7	-0.7
CC(=O)OC[C@H]1O[C@@H](O/N=C/C[C@@H]2C=C[C@H](OC(C)=O)[C@@H](COC(C)=O)O2)[C@H](OC(C)=O)[C@@H](OC(C)=O)[C@@H]1OC(C)=O	-28	3	.	-5	-0.9
COc1cc(CCCN2C(=S)NC[C@@H]2CC2CCCCC2)cc(OC)c1OC	.	.	-1%	-7	8.0
O=C(Nc1ccc(O)cc1)c1ccc2c(c1)C(=O)N(Cc1ccco1)C2=O	-6	13	-6%	-3	1.9
O=C(NNC(=S)Nc1cccc2ccccc12)c1cccc(Br)c1	-31	-19	8%	17	12
O=C(COC(=O)C1=COCCO1)Nc1ccccc1OC(F)F	.	1	62%	87	-1.9
Cc1cc(C)n(-c2ccnc3cc(Cl)ccc23)n1	.	.	.	4	-2.4
COCCNc1ccc(S(=O)(=O)N2CCCC2)cc1[N+](=O)[O-]	.	3	-1%	0	.
Cn1c(=O)c2cc(S(=O)(=O)NC(C(=O)NCc3ccccn3)c3ccccc3)ccc2n(C)c1=O (stereo not given)	-43	3	-4%	2	-0.9
CC(C)(C)[C@@H]1C=C(C(=O)N2CCN(Cc3ccccc3)CC2)O[C@H](OCCCCO)C1	.	2	-2%	-2	-1.8
COc1ccc(C2C(C(C)=O)=C(C)Nc3ncnn32)cc1OC (stereo not given)	22	2	-2%	-3	-3.7
N#Cc1c(-c2c(Cl)cccc2Cl)noc1/C=C/Nc1ccc(C(=O)O)cc1	.	30	5%	-5	-12
CN1CCN(C(=O)c2ccc(COc3ccc(Cl)cc3Cl)cc2)CC1	-22	-38	-6%	-1	2.2
CCOC(=O)c1cc2sccc2n1CC(=O)OC	-16	12	6%	51	0.6
Cc1ccsc1CN(C)C(=O)C1CCC(=O)N(CCc2cccc(F)c2)C1 (stereo not given)	.	.	.	0	1.6
CCOC(=O)CNC(=O)Cn1cnc2c(cnn2-c2ccc(C)cc2)c1=O	.	.	.	-5	2.2
Cc1ccc(S(=O)(=O)N2CCOCC2)cc1NC(=O)COC(=O)C1=COCCO1	.	.	.	0	-3.5
CCCCC(CC)C1OCC(CN2CCCC2)O1 (stereo not given)	-30	0	-8%	-18	0.7
CCCCn1c(=O)c(CCC(=O)OCC(=O)Nc2ccc(C)c(Cl)c2)nc2ccccc21	-35	-2	0%	3	4.6
CN1CCN(c2ccccc2NC(=O)c2cc(Br)ccc2Cl)CC1	-15	-2	12%	-5	0.7
CCCOc1cc(C)c(S(=O)(=O)n2nnc3ccccc32)cc1C	8	-2	-5%	-2	0.1
O=C(O)CCCC(=O)Nc1cc([N+](=O)[O-])ccc1O	.	-3	1%	6	-1.2
Cc1ccc(C(=O)N/N=C/c2ccc3c(c2)OCO3)o1	-30	-13	-2%	3	-2.4
CC(C)c1ccc(Nc2ncccc2C#N)cc1	-30	0	4%	-3	-2.2
CCOC(=O)c1c(C)[nH]c(C(=O)OCc2ccc(C)cc2)c1C	.	.	.	13	3.4
Cn1c(=O)c2c(nc(CN3CCC(C(N)=O)CC3)n2CCc2ccccc2)n(C)c1=O	-5	2	-1%	-15	-0.1
CCc1cccc(NC(=O)CCC(=O)O)c1	-15	0	-5%	-3	-2.0

Bioassay records as filed in PubChem BioAssay.
